Screens: PubChem, ICCB-Longwood Screening Facility, Harvard Medical School
Anaer choline gr – inhibitors of anaerobic choline-dependent gram-negative bacterial growth; Gram-negative bacterium anaerobic choline minimal medium, absorbance growth; stronger effect = lower value; many inactives read as strong as hits in the columns shown; calls only; hit rate 0.2% among 55,000; AID 1963822;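 active = growth z-score on choline under -2 at 7 or 20 h with little or no fall on glycerol, limits in tiers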;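 note: stock transfer was 300 nL into about 50 µL; the organism is E. coli; final concentration not given here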
Anaer choline gr early – also measured in Anaer choline gr; calls as there; z-score; measured here: choline growth z-score, timepoint 1;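 score of optical density at 7 h as mean of two plates; lower means less growth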
The depositor's hits bear a star; i = inactive; & = joins results of further samples. These rows are one share of the data, so the mix of outcomes need not match the whole.

Molecule | Anaer choline gr | Anaer choline gr early
O=S1(=O)NC(c2ccc(O)cc2)Nc2ccccc21 (stereo unspecified) | i | -1.3
COc1ccccc1CNC(=O)c1[nH]cnc1C(=O)NCC1CCCCC1 | i | 0.3
Cc1ccc(O)c(-c2ccnc3cc(-c4ccccc4)nn23)c1 | i | 0.06
Nc1nc(-c2ccc(F)cc2)nn1C(=O)C1CC1 | i | -1.1
Cn1cc(C(CNC(=O)Nc2ccc3c(c2)OCO3)c2cccnc2)c2ccccc21 (stereo unspecified) | i | 0.33
Cn1c(=O)c(-c2noc(C(=O)NCCCN3CCCC3)n2)nn(-c2ccc(F)cc2)c1=O | i | -0.67
O=S(=O)(c1ccccc1)c1nc(-c2ccc(F)cc2)oc1N1CCCC1 | i | 0.32
O=C(Cn1cnc2c(sc3ncccc32)c1=O)Nc1ccc(F)c(F)c1 | i | -1.3
CC(=O)N1N=C(c2cc(C3CC3)nc3ccccc23)OC1c1ccccc1 (stereo unspecified) | i | -0.22
Cc1cc(=O)nc2c3ccccc3n(CC(=O)N3CCC(Cc4ccccc4)CC3)n12 | i | -0.1
Cc1cc2c(cc1S(=O)(=O)N1CCCC(C(=O)N3CCCCC3)C1)OC(C)C(=O)N2 (stereo unspecified) | i | -0.26
COc1ccc(-c2cn3c(C)c(C(=O)Nc4cc(Cl)ccc4OC)sc3n2)cc1 | i | 0.16

Single records, from the list above. Order of screens: Anaer choline gr, Anaer choline gr early
Nc1nc(-c2ccc(F)cc2)nn1C(=O)C1CC1 as listed: i, -1.1
COc1ccc(-c2cn3c(C)c(C(=O)Nc4cc(Cl)ccc4OC)sc3n2)cc1 as listed: i, 0.16
CC(=O)N1N=C(c2cc(C3CC3)nc3ccccc23)OC1c1ccccc1 (stereo unspecified) as listed: i, -0.22
O=S1(=O)NC(c2ccc(O)cc2)Nc2ccccc21 (stereo unspecified) as listed: i, -1.3
Cc1cc(=O)nc2c3ccccc3n(CC(=O)N3CCC(Cc4ccccc4)CC3)n12 as listed: i, -0.1

Following part:
Molecule | Anaer choline gr | Anaer choline gr early
COc1ccc(NC(=O)C2CCCN2S(=O)(=O)c2ccc3c(c2)N(C(C)=O)CCO3)cc1 (stereo unspecified) | i | -0.51
Clc1cccc(Nc2nc(NC3CCCC3)nc3c2cnn3-c2ccccc2)c1 | i | 2.1
Cc1cc(C(=O)NCc2ccc(OC(C)C)cc2)c2c(=O)n(C)c(=O)n(C)c2n1 | i | 1.8
Cc1ccc(N2CC(C(=O)Nc3cc4c(cc3Sc3ccccc3)n(C)c(=O)n4C)CC2=O)cc1 (stereo unspecified) | i | -0.21
CCOc1ccc(NS(=O)(=O)c2cc(C(=O)N3CCN(c4ccccc4OC)CC3)n[nH]2)cc1 | i | -0.95
COc1cc(OC)cc(C(=O)Nc2nc(CC(=O)NCc3c(F)cccc3F)cs2)c1 | i | 1.8
CCOC(=O)C(C)NC(=O)N(C)CCc1noc(-c2ccc(C(=O)N3CCCC3)cc2)n1 (stereo unspecified) | i | -2.2
CC(C)NC(=O)c1ccc2c(c1)nc1n2CCCCC1 | i | -0.08
COC(=O)Cn1c(=O)n(Cc2ccccc2)c(=O)c2cc3c(nc21)CC(C)(C)OC3 | i | 1.7
O=C(NC1CC1)c1nnc(-c2ccc(S(=O)(=O)N3CCCC3)cc2)o1 | i | -0.18
CN(C)c1oc(-c2ccc(F)cc2)nc1S(=O)(=O)c1ccc(F)cc1 | i | 0.43
CCn1c(=O)c(N2CCC(C(=O)Nc3ccc(F)c(Cl)c3)CC2)c(C)n(-c2ccccc2)c1=O | i | -0.1
CC(C)Oc1ccc(-c2noc(CCn3nc(-c4ccc(F)cc4)ccc3=O)n2)cc1 | i | -0.24
CCc1ccc(C(=O)N2CCN(Cc3nc4cc(C(=O)N5CCCC5)ccc4n3C)CC2)cc1 | i | -0.18
CC(C)n1c(SCc2ccccc2)nnc1-c1ccc2c(c1)OCCCO2 | i | -0.68
O=C(CSc1nc2ccccc2c(=O)[nH]1)Nc1ccc(F)cc1 | i | -0.72
Cc1ccc2[nH]c(=O)c3cc(C(=O)N4CCN(c5ccccn5)CC4)sc3c2c1 | i | 1.5
COc1cc(CNC2CCCCC2)ccc1OCc1ccc2c(c1)n(C)c(=O)n2C | i | -0.57
CCOC(=O)c1c(C)[nH]c(C(=O)N2CCC(CC(=O)NCc3cccc(Cl)c3)CC2)c1C | i | 0.27
COc1ccc(C(=O)Nc2cccc(-n3c(C)nc4ncccc4c3=O)c2)cc1 | i | -0.1
CCN(CC)C(=O)CSc1nc(-c2ccccc2)nc2c1Cc1cccc(OC)c1O2 | i | -1.4
CCOc1ccc(S(=O)(=O)NC2CCCCC2)cc1-c1nc(C)no1 | i | 0.44
Cc1nnc(NC(=O)c2cc(=O)c3cc(F)ccc3o2)s1 | i | -1.3
CCOC(=O)c1noc2ncnc(Nc3ccc(F)c(Cl)c3)c12 | i | -0.24
CC1(C)S[C@@H]2C(NC(=O)C(N)c3ccccc3)C(=O)N2C1C(=O)O (stereo partly specified) | i | -0.04
CS(=O)(=O)N1CCC(n2cnc3cccnc32)CC1 | i | -0.1
COc1cc(Nc2c(C(=O)N3CCCCC3)cnc3ccc(F)cc23)cc(OC)c1 | i | -0.74
CC1CCN(C(=O)CN2C(=O)C(=O)c3ccccc32)CC1 | i | 0.82
Cc1ccc(NC(=O)c2ccc(=O)n(Cc3ccc(F)cc3)c2)cc1 | i | 0.41
CCOC(=O)C1CCN(c2nc3ccccc3n3c(=O)n(CC(=O)NC4CCCCC4)nc23)CC1 | i | 1
CN(Cc1ccccc1)C(=O)C1CCN(S(=O)(=O)c2cccc3nsnc23)CC1 | i | 0.95
Cc1ccc(C(=O)Nc2ccc(F)cc2)cc1NC1=NC2CS(=O)(=O)CC2S1 (stereo unspecified) | i | -0.68
O=C(NCc1ccccc1Cl)C1CCN(c2ncnc3c2sc2cccc(F)c23)CC1 | i | -1
Fc1ccc(-c2ccc(CNCCCn3ccnc3)o2)cc1Cl | i | -0.76
COCCNC(=O)C1(C)Cn2nc(-c3ccccc3)cc2C(=O)N1Cc1ccc(C)cc1 (stereo unspecified) | i | -0.05
CCN(CC)S(=O)(=O)c1ccc(NC(=O)N2CCCC(C(=O)Nc3cccc(F)c3)C2)s1 (stereo unspecified) | i | 0.95

No new results follow: 2 of the compounds above.
Molecule | Anaer choline gr | Anaer choline gr early
CC(=O)N1N=C(c2cc(C3CC3)nc3ccccc23)OC1c1ccccc1 (stereo unspecified) | i | -0.22
Cc1cc(=O)nc2c3ccccc3n(CC(=O)N3CCC(Cc4ccccc4)CC3)n12 | i | -0.1

(list continues)
Molecule | Anaer choline gr | Anaer choline gr early
O=S(=O)(c1ccccc1)c1ccc(N2CCN(c3ccccc3)CC2)nn1 | i | -1.1
Cc1ccc(Nc2ncnc3c2nc2n3CCCCC2)c(Br)c1 | i | 1.2
O=C(c1ccc(F)cc1)N1CCC(c2noc(-c3ccc(S(=O)(=O)N4CCCC4)cc3)n2)CC1 | i | 0.58
CN(CCc1noc(C(=O)NCc2ccccc2)n1)C(=O)c1ccc(Cl)cc1 | i | -0.56
O=C(CSc1nnc2n(Cc3ccco3)c(=O)c3sccc3n12)Nc1ccc2c(c1)OCO2 | i | 0.93
CCOC(=O)c1cn[nH]c1S(=O)(=O)Nc1ccc(C)c(C)c1 | i | -0.66
Cc1ccc(-c2cc(NC(=O)Cc3ccsc3)on2)s1 | i | 0.54
O=S(=O)(c1cc(F)ccc1F)N1CCc2nc(-c3ccc(F)cc3)ncc2C1 | i | 0.51
C=CCn1c(-c2nnc(CCC)o2)cc2ccccc21 | i | -0.74
Nc1n[nH]c(-c2ccc(Cl)cc2)n1 | i | -1.5
CCc1nc(-c2ccc(C(=O)NCC(=O)Nc3cccc(C)c3C)cc2)no1 | i | 0.47
CC(C)CCNC(=O)C1(C)Cn2c(c(-n3cccc3)c3ccccc32)C(=O)N1CCC1=CCCCC1 (stereo unspecified) | i | 0.86
CC(C)(C)c1ccc(O)c(NC(=O)c2cn(-c3ccc(S(=O)(=O)N4CCCC4)cc3)cn2)c1 | i | 0.46
C=CCNC(=O)c1ccc(Sc2ccc(NS(=O)(=O)c3cc(C)ccc3C)cc2)nc1 | i | -1.2
CCC(CC)C(=O)Nc1ccccc1SCc1cc(=O)n2c(ncn2C(C)C)n1 | i | 0.22
Cc1noc(C)c1CC(=O)N1CCN(c2ncnc3c2CCC3)CC1 | i | 0.71
CCOC(=O)COc1ccccc1C(=O)c1ccn2nc(-c3ccc(OC)cc3)cc2n1 | i | 0.91
CCC(C)NC(=O)C1CCN(c2ccnc(-c3ccc(F)cc3)n2)CC1 (stereo unspecified) | i | 0.18
CCOC(=O)c1cccc(NC(=O)c2nn(C)c(C(F)(F)F)c2Cl)c1 | i | -0.78
CC(C)CCNC(=O)CCCCn1c(=O)c2ccccc2n(CC(=O)NC(C)C)c1=O | i | 1.2
O=C(CCn1c(=O)c2ccccc2n2c(SCC(=O)NC3CCCCC3)nnc12)NC1CCCC1 | i | 0.01
O=C(NCc1ccc(F)cc1)c1ccc(-n2nnc3cccnc32)cc1 | i | 0.68
NC(N)=NS(=O)(=O)c1ccc(N)cc1 | i | -2.7&0.59
CCN(C(=O)c1ccc(N2C(=O)CCS2(=O)=O)cc1Cl)C1CCS(=O)(=O)C1 (stereo unspecified) | i | -0.54
COc1ccc(OC)c(CNC(=O)c2ccc3cnn(Cc4ccc(Cl)cc4)c3c2)c1 | i | 0.52
COc1cccc(C2C3=C(CC(C)(C)CC3=O)Nc3onc(C)c32)c1 (stereo unspecified) | i | 1.3
C=CCSc1nn(CCC)c2nc3c(c(=O)n12)C(C)(C)Cc1ccccc1-3 | i | 0.4
Cc1ccc(-c2c(N(C)C3CCCCC3)c(=O)c2=O)cc1 | i | 0.5
CCCc1cc(C(=O)N2CCCC2c2c(C)noc2CC)no1 (stereo unspecified) | i | -0.38
CCCOc1ccc(C2CC(=O)Nc3c2c(C)nn3-c2ccc3nnc(C)n3n2)cc1OCC (stereo unspecified) | i | -1.5
Cn1c(=O)cc(OCC(=O)N2CCN(c3ccc(F)cc3)CC2)c2ccccc21 | i | 0.79
Cc1cc(NC(=O)c2ccc(C(C)(C)C)cc2)n(-c2ncnc3c2cnn3-c2ccc(F)cc2)n1 | i | -0.28
CC(C)(C)c1csc(-c2csc(S(=O)(=O)NCc3ccc(F)c(Cl)c3)c2)n1 | i | -0.54
CCc1cc(=O)n2[nH]c(NCc3ccccc3F)nc2n1 | i | -0.43
CCc1nc(C)cn1S(=O)(=O)c1ccc(C)cc1 | i | -0.47
O=C(CSc1nc2ccccc2c(=O)[nH]1)Nc1ccc2c(c1)OCCO2 | i | 0.61
COc1cccc(C2=Nc3cc(C)c(C)cc3NC(=S)C2)c1 | i | 1.1
COc1ccc(C2CC(=O)N(c3cccc(Cl)c3)C(=O)C2)cc1OC | i | 2.5
O=C(Nc1nccs1)C1CCN(Cc2noc(-c3ccc(F)cc3)n2)CC1 | i | -0.34
CNC(=O)COCc1cc(-c2ccc3c(c2)OCO3)on1 | i | -1.7
COCCn1c(CCCC(=O)N2CCN(c3ncccn3)CC2)nc2cccnc21 | i | -1.6
CC1(C(=O)NCc2ccc(F)cc2)CCCN(C(=O)c2ccc(F)c(F)c2)C1 (stereo unspecified) | i | -0.23
CCc1nc(-c2csc(S(=O)(=O)N3CCC(C(=O)NC4CCCC4)CC3)c2)no1 | i | 0.32
O=C(CN(Cc1ccccc1)S(=O)(=O)c1ccc(Br)cc1)N1CCN(c2ccccc2F)CC1 | i | -0.09
CCCC(C)NC(=O)c1cnc2sc3c(n2c1=O)CCCC3 (stereo unspecified) | i | 0.84
CC1CCC(NC(=O)C2(C)Cn3c(cc4sccc43)C(=O)N2C2CCCC2)CC1 (stereo unspecified) | i | 0.59
COC(=O)C1=C(C)NC(C)=C(C(=O)OCCCN2CCC(c3ccccc3)(c3ccccc3)CC2)[C@@H]1c1cccc([N+](=O)[O-])c1 | i | 0.98
CC(CCc1ccccc1)NC(=O)CSc1nc2nc[nH]c2c(=O)[nH]1 (stereo unspecified) | i | 1.4
COc1cc(CN2CCCC2c2c(C)noc2C)ccc1OCC(C)C (stereo unspecified) | i | 0.27
COc1ccccc1C1=NS(=O)(=O)N(C)C(C(=O)N2CCCCC2C)=C1 (stereo unspecified) | i | 1
Cc1cccn2c(=O)cc(COc3ccc(NC(=O)CN4C(=O)c5ccccc5C4=O)cc3)nc12 | i | 0.48
COC(=O)c1sccc1NC(=O)Cn1ccn2nc(-c3ccc(C)cc3)cc2c1=O | i | 0.86
CC1(C)C(=O)N(CC(=O)Nc2ccccc2Cl)c2ccccc21 | i | -0.27
O=c1c2cc3c(cc2nc(SCc2nc(-c4ccccc4)no2)n1CC1CCCO1)OCO3 (stereo unspecified) | i | 0.58
Cc1cccc(Cn2c(CN3CCC(C(=O)NCc4cccnc4)CC3)cc3ccccc32)c1 | i | 0.45
Cc1ccc(NC(=O)Cn2c(C)cc(C)c(-c3nc(-c4ccc(Cl)cc4)no3)c2=O)c(Cl)c1 | i | -0.24
CCC(C)(C)C(=O)O[C@H]1C[C@@H](C)C=C2C=C[C@H](C)[C@H](CC[C@@H]3C[C@@H](O)CC(=O)O3)[C@H]21 | i | 0.84&-1.2&0.63
COCc1nncn1C1CCNCC1 | i | 0.85
CCc1ccc(NS(=O)(=O)c2cc(-c3ccn[nH]3)sc2C)cc1 | i | -1.7
O=c1c2cccnc2nc(SCc2ccc(F)cc2)n1Cc1ccc(F)cc1 | i | 0.1
CC[N+](CC)(CC(=O)Nc1c(C)cccc1C)Cc1ccccc1 | i | -0.24
O=S1(=O)c2cccc3cccc(c23)N1CCCN1CCN(c2ccc(F)cc2)CC1 | i | 0.72
CCCCC[C@H](O)/C=C/[C@H]1C=CC(=O)[C@@H]1CCCCCCC(=O)OCC | i | -0.63
